From PubChem
VDR inh: vitamin D3 receptor (human) inhibition; P11473; VDR-SRC2-3 peptide fluorescence polarization, 2 h; Potency, µM, for the others: max response, negative = inhibition, hits mostly inhibitors; hit rate 0.93% among 400,000; AID 504847; active = well fitted inhibition curve with a large enough effect; inconclusive = small, poorly fitted or top-dose-only effect, or another doubt; inactive = no such curve, though single readings can be large or run the other way; also: series mostly up to about 120 µM
Target sequence (P11473 whole entry, looked up): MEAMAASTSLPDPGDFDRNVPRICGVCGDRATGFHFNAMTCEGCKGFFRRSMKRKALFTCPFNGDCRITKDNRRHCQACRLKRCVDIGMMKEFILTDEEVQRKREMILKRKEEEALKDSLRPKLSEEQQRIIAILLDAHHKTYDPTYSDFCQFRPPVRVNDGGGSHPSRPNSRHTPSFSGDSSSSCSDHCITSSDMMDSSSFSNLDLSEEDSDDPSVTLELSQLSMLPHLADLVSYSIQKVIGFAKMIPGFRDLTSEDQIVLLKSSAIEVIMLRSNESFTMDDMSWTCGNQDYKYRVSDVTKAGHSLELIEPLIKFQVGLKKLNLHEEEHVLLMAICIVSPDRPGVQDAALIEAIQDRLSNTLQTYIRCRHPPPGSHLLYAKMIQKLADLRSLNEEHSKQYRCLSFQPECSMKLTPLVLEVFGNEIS
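Reagent solutions, kept cold and dark, are dispensed first; compounds are then pinned in at 23 nl, plates briefly spun, and incubated 2 h at ambient temperature. Inhibition of VDR–SRC2-3 peptide binding is read by fluorescence polarization.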
* = called active by the depositor; ? = inconclusive; & = joins results of further samples; [ ] = remark or other dose. % is scaled to controls: 0 for no effect and ±100 for the full control effect; potency is read from the fitted curve at half-maximal effect. An excerpt; rates above refer to the full screens.

SMILES | VDR inh
Cc1ccc(C2=NCCn3c2c2ccc([N+](=O)[O-])cc2[n+]3[O-])cc1 | 1%
CCCCC1(CC)COC(c2ccccc2)OC1 (configuration not stated) | 4%
Cc1cc(C)cc(C(=O)N[C@@H](C)C(=O)N2CCC3(CC2)NCCc2[nH]cnc23)c1 | -14%
O=C(Nc1ccc(Cl)c(C(F)(F)F)c1)[C@@H]1CC=C[C@@H]2CCN(C3CCCCC3)C(=O)[C@@H]21 | -7%
Cn1nc(C(=O)NCC2COc3ccccc3O2)c2ccccc2c1=O (configuration not stated) | -1%
Cc1nc(SCC(=O)N2CCNC2=O)c2ccccc2n1 | 2%
CSC1=NCCN1S(=O)(=O)c1ccc(NC(C)=O)cc1 | -12%
Cc1ccc(S(=O)(=O)N(C)C)cc1NC(=S)N1CCCCC1CO (configuration not stated) | -2%
COc1ccc(CCNC(=S)NC2CCN(Cc3ccccc3)CC2)cc1 | 23%
Cc1ccc(NC(=O)CC(=O)NCCN2CCOCC2)cc1 | 2%
Cc1ccc([N+](=O)[O-])cc1S(=O)(=O)Nc1ccc(N2CCOCC2)cc1 | 5%
O=C(O)C1CCC[C@@H]2[C@@H]3CC(CN12)[C@@H]1CCCCN1C3 (some centres not stated) | -4%
COc1ccc(N2CCN(C(=O)CN3CCN(C(c4ccccc4)c4ccccc4)CC3)CC2)cc1 | -2%
CSCCC(NS(=O)(=O)c1ccc(Cl)cc1)C(=O)OCC(=O)c1c(C)[nH]c2ccccc12 (configuration not stated) | -2%
Clc1ccc(/C=N/Nc2nc(Cl)nc3ccccc23)cc1 | 8%
FC(F)(F)c1ccncc1-c1nnnn1-c1ccc(Cl)cc1 | -4%
O=C(Cc1cccs1)N1CCN(c2ccc([N+](=O)[O-])cc2)CC1 | -10%
CC1=C(/C=C/C(C)=C/C=C/C(C)=C/C=C/C=C(C)/C=C/C=C(C)/C=C/C(=O)[C@]2(C)C[C@@H](O)CC2(C)C)C(C)(C)C[C@H](O)C1 | -11%
CCN(CC)CCn1c2ccc(Cl)cc2c2nc(C)sc21 | 1%
O=C(Nc1nc2ccccc2[nH]1)c1ccc(Br)o1 | 12%
Cc1ccc(-n2nccc2-c2nn(-c3cccc(C(F)(F)F)c3)c(=O)n(C)c2=O)cc1 | 21%
CC(C)Oc1ccc(S(=O)(=O)N(C(C)C)C(C)C)cn1 | -5%
CN(C1CCCCC1)S(=O)(=O)c1ccc(S(=O)(=O)N2CCN(CCC#N)CC2)cc1 | -11%
CCOc1ccc(Nc2nc(N)c([N+](=O)[O-])c(N3CCN(C)CC3)n2)cc1 | -7%
Cc1cc(C)n(-c2ccc([N+](=O)[O-])cc2-c2nn[nH]n2)n1 | -19%
COc1ccc(CCN2C(=O)c3ccccc3NC2c2cc(Cl)c(O)c(OC)c2)cc1 (configuration not stated) | -4%
CCCCOC(=O)N/N=C/C=C/c1ccccc1 | -10%
COc1cc2c(cc1OC)C(COc1ccc3c(C)cc(=O)oc3c1)N(C(=O)Cc1ccccc1)CC2 (configuration not stated) | 6%
CCC(=O)OC1(C#CCOc2ccc(OC)cc2)CCN(C)CC1 | -10%
NS(=O)(=O)c1cccc(NC(=O)CSc2nnc(C3CC3)n2Cc2ccccc2)c1 | 5%
O=S(=O)(c1ccc(F)cc1)N1CCN(c2ccc(-c3ccccc3)nn2)CC1 | 17%
CCOc1ccc(OCC(=O)Nc2ccc(S(N)(=O)=O)cc2)cc1 | -1%
CC(=O)N1CCc2cc(Br)cc(S(=O)(=O)NCCCN3CCCC(C)C3)c21 (configuration not stated) | -13%
O=C(COc1ccc(Cl)cc1Cl)Nc1ccc(C(=O)Nc2ccccc2C(=O)O)cc1 | -7%
CCCC(=O)N1CCN(c2nnc(-c3ccccc3)c3ccccc23)CC1 | -23%
c1ccc(Cc2nn3c(-c4ccncc4)nnc3s2)cc1 | ?
CCCS(=O)(=O)n1nc(-c2ccc(C)cc2)cc1N | 7%
O=C(c1cccc(F)c1)N1CCN(c2ccc([N+](=O)[O-])c(N3CCOCC3)c2)CC1 | -17%
COc1ccc(CCNC(=O)c2ccc3c(c2)N(Cc2ccccc2C)C(=O)c2ccccc2S3)cc1OC | -1%
CN(Cc1ccc2c(c1)OCO2)C(=O)c1cc(-c2ccccc2)c(N2CCOCC2)s1 | -10%
CCc1cccc(NC(=O)CN(C)S(=O)(=O)c2ccc3[nH]c4c(c3c2)CCCC4)c1 | 3%
Cc1ccccc1OCC(=O)NC1=NCCS1 | 25%
CC(C)Nc1nc(-c2ccccc2)nc(-n2ccnc2)n1 | -13%
COc1ccc(CN2CCCC(C(=O)N3CCCC3)C2)c(OC)c1 (configuration not stated) | 17%
COc1cc(C(CC(=O)Nc2ccc(F)cc2F)N2Cc3ccccc3C2=O)cc(OC)c1OC (configuration not stated) | 3%
CC[C@]12C(=O)N(C)C[C@H]([C@@H]3C(=O)N(C)C(=O)[C@@H]31)N2C(=O)c1ccc(Cl)c(Cl)c1 | -3%
CC1CN(S(=O)(=O)c2cccc(C(=O)NCC3COc4ccccc4O3)c2)CC(C)O1 (configuration not stated) | 11%
COc1ccc(CN2CC[C@H]3C=CC[C@@H](C(=O)NCCc4ccccc4)[C@H]3C2=O)cc1OC | 1%
CC(C)NC(=O)c1ccccc1NC(=O)C1CCCO1 (configuration not stated) | 4%
NS(=O)(=O)c1ccc(NC(=O)COC(=O)c2ccc(S(=O)(=O)N3CCOCC3)cc2)cc1 | 3%
Following part.
SMILES | VDR inh
COc1ccc(C(=O)c2cn(Cc3ccc(F)cc3)c3ccc(C)cc3c2=O)cc1 | 2%
O=C(NCc1ccccc1)c1ccc(/C=N/O)nc1 | 0%
Cc1cc(Cl)nc(NC(=O)Nc2cccc(Cl)c2)n1 | -6%
CC(C)Cn1c(N)c(C(=O)COC(=O)CN2C(=O)C3CC=CCC3C2=O)c(=O)n(C)c1=O (configuration not stated) | -3%
COc1ccccc1N1CCN(C2CCCN(C(=O)CCc3ccccn3)C2)CC1 (configuration not stated) | -13%
CC(=O)Nc1ccc2nc(SCc3ccccc3)sc2c1 | -5%
COc1ccc(CN2CCN(C(=O)C3CCC(CNS(=O)(=O)c4ccccc4)CC3)CC2)c(OC)c1OC (configuration not stated) | 4%
COc1ccc(S(=O)(=O)NCC(=O)NC2CC2)cc1OC | -17%
CC(C)(CNc1ccc([N+](=O)[O-])cc1Cl)CNS(C)(=O)=O | 2%
O=C(Nc1ccc2oc(-c3cccc4c(Br)cccc34)nc2c1)c1cccc(Cl)c1 | -15%

Among those listed so far, these contain an aryl thioether with sulfur outside any ring:
SMILES | VDR inh
Cc1nc(SCC(=O)N2CCNC2=O)c2ccccc2n1 | 2%
NS(=O)(=O)c1cccc(NC(=O)CSc2nnc(C3CC3)n2Cc2ccccc2)c1 | 5%
CC(=O)Nc1ccc2nc(SCc3ccccc3)sc2c1 | -5%

Later entries:
SMILES | VDR inh
Cc1ccc(S(=O)(=O)N2CCCCCC2)cc1[N+](=O)[O-] | 10%
COc1ccc(OC)c(NC(=O)CSc2nc3ccccc3cc2Cc2ccccc2)c1 | 12%
c1ccc(CNc2nc3ccccc3c3nc(-c4ccccc4)nn23)cc1 | 1%
COc1ccc(CCNC(=O)CCS(=O)(=O)c2cccc3nsnc23)cc1OC | 17%
COc1ccc(N2CCN(c3nc4c(c(=O)[nH]c(=O)n4C)n3Cc3cccc(C)c3)CC2)cc1 | 0%
O=C(O)Cc1ccc(NC(=O)Cc2ccc3ccccc3c2)cc1 | 19%
COCCOc1ccc(C(F)(F)F)cc1NC(=O)COC(=O)C12CC3CC(CC(O)(C3)C1)C2 | -13%
O=C(NS(=O)(=O)Oc1cccc(Cl)c1Cl)OC[C@@H]1CCCN2CCCCC12 (some centres not stated) | 10%
Cc1ccnc(NS(=O)(=O)c2ccc(NC(=O)CC(C)c3ccccc3)cc2)n1 (configuration not stated) | -7%
COCCN(C(=O)c1sc2ccccc2c1Cl)c1c(N)n(CC(C)C)c(=O)[nH]c1=O | 4%
c1ccc2c(c1)CN1CCCC1=N2 | -2%&5%&1%
Nc1ccn([C@@H]2O[C@H](CO)[C@@H](O)C2O)c(=O)n1 (some centres not stated) | -6%&-5%&-3%
Cc1ccc2c(c1)N(CCC(=O)NCC1CCCO1)C(=O)CO2 (configuration not stated) | -7%
Cc1ccc2nc(Nc3ccc(F)cc3)c3nncn3c2c1 | 12%
Cc1ccc(-c2nsc(NC(=O)c3oc4cc(C)c(Cl)cc4c3C)n2)cc1 | 12%
COc1ccc(NC(=O)Cn2c(=O)oc3cc(Cl)ccc32)c(OC)c1 | 1%&9%
O=C1[C@@H]2[C@H](C(=O)N1O)[C@H]1C=C[C@@H]2C1 | 2%
N#CCCC1CCCC=C1N(Cc1ccccc1)C(=O)C(Cl)Cl (configuration not stated) | 1%
Cc1ccc(OC(=O)CCC(=O)OCCCC(F)(F)C(F)(F)F)cc1 | -1%
O=C(NNS(=O)(=O)c1ccc([N+](=O)[O-])cc1)c1ccc2ccccc2c1O | 3%

Not a retest: 5 of the compounds above.
SMILES | VDR inh
Cc1ccc2c(c1)N(CCC(=O)NCC1CCCO1)C(=O)CO2 (configuration not stated) | -7%
Cc1ccc2nc(Nc3ccc(F)cc3)c3nncn3c2c1 | 12%
Cc1ccc(-c2nsc(NC(=O)c3oc4cc(C)c(Cl)cc4c3C)n2)cc1 | 12%
COc1ccc(NC(=O)Cn2c(=O)oc3cc(Cl)ccc32)c(OC)c1 | 1%&9%
O=C1[C@@H]2[C@H](C(=O)N1O)[C@H]1C=C[C@@H]2C1 | 2%

(next part)
SMILES | VDR inh
O=C1NC2(CCCCC2)NN1c1ccccc1 | -5%
O=C(NNC(=S)Nc1ccc(Cl)c(Cl)c1)c1ccccn1 | ?
O=C(N/N=C/c1cccs1)c1c[nH]c2ccccc12 | -7%
CCN(CC)C(=O)c1ccc2c(c1)N(Cc1c(F)cccc1Cl)C(=O)c1ccccc1S2 | -15%
COc1ccc(Cl)cc1NC(=O)Cn1c(NCCO)nc2ccccc21 | 1%
CNC(=O)CO/N=C/c1ccc(N(C)C)cc1 | 6%
CCOc1ccc(OCC)c(NC(=O)CSc2nc3c(c(=O)n(C)c(=O)n3C)n2CC)c1 | 4%
COc1ccc(C(=O)NNC(=O)CSc2nc3c(c(=O)n(C)c(=O)n3C)n2C)cc1 | -8%
O=c1c2[nH]c3ccccc3c2ncn1C1CCCCC1 | -26%
CC1CCN(S(=O)(=O)c2ccc(C(=O)Nc3nnc(C4CC4)o3)cc2)CC1 | 18%
CC(C)NC(=O)NC(=O)COC(=O)c1ccc(S(=O)(=O)Nc2ccccc2)cc1 | -22%
O=C(O)c1cn(-c2ccccc2)nc1C(=O)O | 12%
Cc1cc(-n2c(C)cc(C(=O)CN3C(=O)C(=O)N(C)C3=O)c2C)no1 | 2%
Cc1cccc(C)c1NC(=O)N1CCC(N2CCCCC2)CC1 | 16%
C/C=C(\C)C(=O)OC1CC(C)(C)C[C@H]2C3=CC[C@@H]4[C@@]5(C)CCC(O[C@@H]6O[C@@H](C(=O)O)[C@@H](O)C(O[C@@H]7OC[C@H](O)[C@@H](O)[C@@H]7O[C@@H]7OC(CO)C(O)[C@@H](O)[C@@H]7O)C6O[C@@H]6OC(CO)C(O)C(O)C6O)[C@@](C)(CO)[C@@H]5CC[C@]4(C)[C@]3(C)CC(O)[C@@]12CO (some centres not stated) | ?
CC(=O)C1=C(O)C(=O)N(Cc2ccccc2)C1c1cccs1 (configuration not stated) | -16%
O=C(c1ccccc1F)N1CCN(S(=O)(=O)c2ccc(Br)cc2)CC1 | 1%
CC(=O)c1ccc(NC(=O)COc2ccccc2-c2nc(-c3ccccc3)no2)cc1 | 2%
Cc1cc(C)nc(NC(=O)CSc2nc3ccccc3s2)n1 | 7%
CCOC(=O)C1=C(c2ccccc2)N=C2SCC(=O)N2C1c1ccc(OC)c(OC)c1 (configuration not stated) | 50%[activator]

Laid out differently: results already given.
structure	VDR inh
Cc1cc(-n2c(C)cc(C(=O)CN3C(=O)C(=O)N(C)C3=O)c2C)no1	2%
Cc1cccc(C)c1NC(=O)N1CCC(N2CCCCC2)CC1	16%

Continued:
SMILES | VDR inh
Cc1csc(N2C(=O)C3C4CCC(O4)C3C2=O)n1 (configuration not stated) | -10%
Cc1ccc(C(=O)N2CCSC2=S)cc1 | -16%
COc1ccc(CNc2nc3nc(C)c(Cl)c(C)n3n2)cc1OC | 1%
CCCOC(=O)c1cc(-c2ccc(/C=C3/C(=O)N(C)C(=O)C(C#N)=C3C)o2)ccc1Cl | 50µM*
O=C(CS(=O)(=O)c1ccc(F)cc1)Nc1nnc(-c2ccccc2Cl)o1 | -15%
CCCCNC(=O)c1ccc(S(=O)(=O)c2ccc(Cl)cc2)c(NC(C)=O)c1 | 8%
CC(C)(C)NC(=O)c1ccc2c(c1)N(CC(=O)NC1CCCC1)C(=O)C(C)(C)O2 | -8%
Cc1nc(SCC(=O)NCc2ccco2)[nH]c(=O)c1C | 21%
COc1cc(/C=N/Nc2nc3c(c(=O)n(C)c(=O)n3C)n2Cc2ccccc2)ccc1OC(=O)c1ccco1 | 8%
COc1ccc(-n2c(Cc3cccn3C)nnc2SCC(=O)Nc2ccc(C(C)=O)cc2)cc1 | 16%
Cc1ccc(O)c(N=Nc2ccccc2)n1 | 0%&4%&11%&2%
O=C(c1cnc2ccccc2n1)N1CCN(c2ccc(C(F)(F)F)cn2)CC1 | -2%
CCc1cccc(CC)c1NC(=O)COC(=O)C1(c2ccc(Cl)cc2)CCCC1 | -25%
Cc1nn(-c2nnc(C)c(=O)[nH]2)c(C)c1SCC(=O)Nc1ccc(C(C)C)cc1 | 4%
CC(O)CNc1nc2sc3c(c2c(=O)n1Cc1ccco1)CCCCC3 (configuration not stated) | -13%
O=C(CN1C(=O)c2ccccc2S1(=O)=O)NCCSc1ccccc1 | 3%
Cc1cc(/C(N)=N/OC(=O)c2ccccc2Cl)no1 | 3%
CCn1c(SCc2ccc([N+](=O)[O-])cc2)nnc1C(C)NC(=O)c1ccccc1Br (configuration not stated) | 13%
Cn1c(O)c(N=NC(=O)c2ccccc2O)c2ccccc21 | ?
Cc1cc(C)c2c(CC(=O)NNC(=O)c3ccccc3)coc2c1 | 9%
